Screening results: PubChem, several laboratories
Mtb hypoxia rep: Mtb hypoxia fluorescent reporter inhibition; AID 1159583; M. tuberculosis hypoxia-regulated fluorescent reporter, fluorescence; fluorescence inhibition, % (test concentration not listed); actives 0.1% (n = 300,000);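 active = 35 to 45% if threefold the growth effect, above 45% if 1.5-fold the growth effect; inactive = the rest, general growth blockers included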;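 note: wells of about 50 µL received 100 nL stock; 0% = vehicle wells and 100% = reference inhibitor wells; whole bacteria with a GFP reporter of the hypoxia response; strong numbers were not always called active; many hits fall short of the cut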
Bead autofluor: flagged as autofluorescent in microsphere protease counterscreen. compound autofluorescence counterscreen, microsphere flow cytometry; active compounds read high. fluorescence intensity (no concentration beside the values). actives 3.1% (n = 360,000). AID 624483;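 active = at least 3 SD above the mean of all compounds, about 16000 in these data; inconclusive = too few beads counted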;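 note: 100 nL of 1 mM stock went into each well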
BJeLR viability: BJeLR cell viability loss; AID 1554; BJeLR (HRASV12) viability, CellTiter-Glo ATP luminescence, 48 h; reference of the scale not given here; inhibition, % (no concentration beside the values); actives 0.17% (n = 300,000);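 active = replicate mean above 50%; inconclusive = above 50% but judged a plate artefact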;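 note: 50 nL library stock added to about 25 µL; numbers are from one replicate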
PrP UTR inh: inhibition of PrP 5' UTR reporter expression; cell-based PrP 5' UTR mRNA reporter, plate reader; actives 0.35% (n = 340,000); AID 488862; inhibition, % (concentration not given with the values);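 active = every replicate at 50% or more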;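 note: 0 = median of the neutral control wells; tested in H4 reporter cells; numbers are from one replicate; inactives centre near -14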
RN4220 kill: S. aureus RN4220 growth inhibition; OD600, 16 h; inhibition, % (test concentration not listed); actives 0.33% (n = 330,000); AID 1259311;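 active = z-score of -3 or lower and OD600 up to 0.18 on both plates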;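 note: plate controls were untreated cells for no effect and reference antibiotic for full effect; stock transfer was 100 nL into about 80 µL; one replicate is shown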
ugtP null kill: compounds lethal to S. aureus RN4220 ugtP deletion mutant | growth inhibition, % (concentration not given with the values) | OD600 growth, 16 h; some inactives read as strong as hits | actives 0.54% (n = 330,000);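 active = z-score under -3 and OD600 up to 0.15 on both plates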;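 note: plate controls were untreated wells for no effect and antibiotic for full effect; wells of about 80 µL received 100 nL stock; the first replicate is given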
Mtb hypoxia rep growth: recorded beside Mtb hypoxia rep, whose call it bears; growth inhibition, %; measured here: M. tuberculosis growth (absorbance);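 0% = vehicle and 100% = reference antibiotic; read after six days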
The depositor's hits bear a star; ? = inconclusive; · = no result given.

SMILES	BJeLR viability	Mtb hypoxia rep	ugtP null kill	Mtb hypoxia rep growth	RN4220 kill	PrP UTR inh	Bead autofluor
CC(=O)c1ccc(N2CCC(C(=O)O)CC2)cc1	1	-8	0	-5	1.4	-40	2215
O=C(COC(=O)COc1ccc(Br)cc1)NNC(=O)c1ccccc1	·	0	-7	2	-4.9	-13	?
COc1ccc(OCC(=O)Nc2ccccc2C(=O)Nc2ccc(C(=O)O)cc2)cc1	4	-4	2	5	2.7	-6	6967
O=C(CNC(=O)c1ccc(Cl)cc1Cl)OCc1ccccc1	-3	5	4	7	3.4	0	·
CCCOc1ccc(/C(O)=C2/C(=O)C(=O)N(CCN(C)C)C2c2ccc(OC)c(OC)c2)cc1 (stereo not drawn)	4	·	9	·	-1.5	-18	4507
CCCCOc1ccc(/C=C/C(=O)OCC(=O)NC(=O)NCC(C)C)cc1OCC	10	4	-13	3	3.3	-16	2488
C/C(=N\N1CCN(c2ccc(Cl)cc2)CC1)c1cccs1	-13	·	·	·	·	-17	2110
COCCN1C2=C(COC(C)(C)C2)C(=S)NC1c1ccccc1 (stereo not drawn)	-7	-6	-2	12	3.5	-25	4463
Cc1nc([N+](=O)[O-])cn1CC(=O)Nc1ccc2c(c1)OCO2	9	3	-8	10	-1.3	-27	2513
O=S(=O)(N[C@H]1C[C@@H](NS(=O)(=O)OCC(Cl)(Cl)Cl)C2CCCCC21)OCC(Cl)(Cl)Cl (stereo partly drawn)	-2	·	·	·	·	-34	3541
CN(CC(=O)Nc1ccc(F)cc1)CC(=O)Nc1ccc(Cl)c(S(=O)(=O)N2CCOCC2)c1	13	13	4	3	6.2	-6	4601
Cn1ccnc1C(O)c1ccccc1 (stereo not drawn)	1	0	7	4	1.4	-34	3988
O=c1oc2ccc(Br)cc2cc1-c1nc2ccccc2o1	-8	8	4	1	8.7	-21	10637
COc1cc(C2CC(=O)Oc3c(C(CCN4CCCC(C)C4)c4ccc(N(C)C)cc4)c(OC)cc(OC)c32)cc(OC)c1OC (stereo not drawn)	1	-8	7	6	2.3	-2	2868
CCOC(=O)C1CCCN(C(=O)C(=O)Nc2ccc3nc4n(c(=O)c3c2)CCCCC4)C1 (stereo not drawn)	3	1	10	1	10	-1	4169
COc1ccccc1Nc1nc2nonc2[nH]c1=O	1	-3	11	-5	26	4	2839
CC(C)(C)C(=O)c1cn(Cc2ccccc2)c2ccccc12	0	-4	15	-1	-3.9	-38	4410
COc1ccc(C(=O)N/N=C(\N)c2cc3ccccc3oc2=O)cc1	4	-2	10	-10	0.6	-18	5164
N/C(=N\OC(=O)COc1ccc(Cl)cc1Br)c1cccnc1	-10	0	12	6	5.6	-76	4437
CC(=O)c1cccc(NC(=O)CN2CCc3cc4c(cc3C2C)OCCCO4)c1 (stereo not drawn)	-5	1	3	1	0.9	-6	5264
Cn1c(CC(=O)Nc2ccccc2F)nnc1SCC(=O)Nc1nccs1	-6	0	17	0	7.5	-19	3155
O=C1NC(=O)C(Cc2ccccc2)(c2ccccc2)N1 (stereo not drawn)	·	1	-5	2	-0.4	6	2923
CC(NC(=S)NC(=O)c1ccccc1Br)c1ccccc1 (stereo not drawn)	0	0	4	-1	2.7	-10	3752
O=C(O)c1cccc(Oc2ccc(C(=O)O)c([N+](=O)[O-])c2)c1	·	3	-2	14	0.0	-7	3577
CN(CC(=O)Nc1cccc(F)c1)C(=O)c1ccc2c(c1)OCCO2	-3	2	-2	4	-1.0	-32	?
COc1ccc(NC(=O)c2cc(-c3ccccc3)oc2C)cc1	8	10	-1	2	3.4	-37	2011
COc1ccc(C(=O)C(=CO)N=Nc2ccc(F)cc2)cc1	·	3	-2	4	2.9	·	·
CCCN1CCN(c2ccc([N+](=O)[O-])cc2C#N)CC1	-2	13	-6	6	3.2	-45	4310
COc1cc(C(=O)NCc2ccncc2)cc(Br)c1OCc1ccccc1	-13	1	6	3	-6.4	-29	3172
Cc1ccccc1OCCOC(=O)c1c(-c2ccccc2)noc1C	-1	·	·	·	·	-38	5023
COc1ccc(NC(=S)NCC2CCCO2)c(C)c1 (stereo not drawn)	4	-2	-1	-11	-3.5	-4	2362
O=C(/C=C/c1ccccc1)NCCSCc1ccccc1	13	-3	6	-10	-3.3	-18	2171
O=C1C(=O)N(CCN2CCOCC2)C(c2ccncc2)/C1=C(/O)c1ccc2c(c1)OCO2 (stereo not drawn)	-3	7	18	2	7.1	-1	3652
Cn1c(/C=N/n2cnnc2)nc2ccccc21	0	·	·	·	·	-28	10095
CC1=C(CC/C(C)=N/NC(N)=S)C(C)(C)CCC1	-12	·	·	·	·	-21	11781
CCOc1ccc(/C=C2/C(=N)N3OC(C)=CC3=NC2=O)cc1OC	4	·	·	·	·	-16	2564
O=C1OCCC1Sc1nnc(-c2ccc(Br)cc2)o1 (stereo not drawn)	1	·	-7	·	-3.1	-6	4937
CC(C)Oc1cccc(C(=O)Nc2ccc(NC(=O)c3ccco3)cc2)c1	-2	·	-17	·	-0.4	-12	3676
COc1ccccc1/C=C/C(=O)NC(=S)N1CCN(C)CC1	·	7	7	14	2.2	-16	6078
COCc1cc(C)nc(OCC(=O)N/N=C/c2ccc(-c3cc([N+](=O)[O-])ccc3C)o2)c1C#N	3	·	·	·	·	-11	2302
O=C(Nc1ccc(Cl)c(Cl)c1)c1ccc(Cn2cc(Cl)cn2)cc1	-4	18	-13	-7	1.7	-47	2565
Cc1ccc(C2CC(c3cccs3)=NN2C(=O)CSc2nc(=O)n3ccc(C)cc3n2)cc1 (stereo not drawn)	-2	·	·	·	·	-8	6616
CCCCCn1c(=O)c(Cc2ccccc2)c(O)c2ccccc21	-16	3	-46	4	4.1	-17	8091
O=C1c2cc([N+](=O)[O-])ccc2-c2ncccc21	-9	1	-7	3	11	-6	6274
CCS(=O)(=O)c1cc([N+](=O)[O-])c(Sc2ccccc2N)s1	-2	3	-9	10	7.9	13	4195
NC(=S)NN=Cc1cc([N+](=O)[O-])ccc1Cl	·	9	5	3	1.6	·	·
c1ccc2c(-c3nn4nnnc4c4ccccc34)cccc2c1	3	-89	-5	-20	-1.7	-18	8357
O=C(COc1ccc(Cl)cc1)N(c1ccc(Cl)cc1)C1CN2CCC1CC2 (stereo not drawn)	-1	21	1	19	-3.1	-14	5915
CC(=O)c1cc(-c2ccccc2)n(CC(=O)N2CCN(C3CCCC3)CC2)c1C	3	·	2	·	-0.2	-9	4667
CCN(CC)c1ccc(NC(=O)COc2ccc(N(C)S(=O)(=O)c3cccs3)cc2)cc1	12	11	3	13	7.9	5	3776
CC(C)=CCC(C)(C)CNC(=O)NC1CCCCC1	7	·	-6	·	-4.6	-27	2557
N#Cc1ccccc1Sc1ccccc1C(=O)OCC(=O)N1CCN(C(=O)c2ccco2)CC1	-1	9	2	13	1.1	-18	2866
COCCCNC(=O)CCc1c(C)nc2c(c(C)nn2-c2ccc(C)cc2)c1C	8	3	0	3	1.0	-29	4086
Cc1sc2ncnc(SCC(=O)NC(=O)c3cccn3C)c2c1C	0	8	4	0	5.7	-2	4122
CN1CCC(N(C)C(=O)c2ccccc2F)CC1	-4	5	7	-5	2.2	-20	3863
CCc1ccc(CNc2ccc3c(c2)ncn3CC)cc1	-2	11	8	8	5.6	-80	3739
S=C(NCCc1cccc(Cl)c1)NC1CCCCC1	-6	1	-22	21	-8.6	-97	5726
CCOC(=O)N1CCN(c2nc3c(C)cccn3c(=O)c2C=O)CC1	3	23	3	13	0.7	-9	3784
COC(=O)c1ccc2c(=O)n(-c3ccccc3)c(=S)[nH]c2c1	-1	10	54	8	2.9	-19	3360
CCC(C)n1c(=N)c(C#N)cc2c(=O)n3ccccc3nc21 (stereo not drawn)	8	12	-1	11	-13	-7	2812

Continued, overlapping the part above by four compounds.
SMILES	BJeLR viability	Mtb hypoxia rep	ugtP null kill	Mtb hypoxia rep growth	RN4220 kill	PrP UTR inh	Bead autofluor
S=C(NCCc1cccc(Cl)c1)NC1CCCCC1	-6	1	-22	21	-8.6	-97	5726
CCOC(=O)N1CCN(c2nc3c(C)cccn3c(=O)c2C=O)CC1	3	23	3	13	0.7	-9	3784
COC(=O)c1ccc2c(=O)n(-c3ccccc3)c(=S)[nH]c2c1	-1	10	54	8	2.9	-19	3360
CCC(C)n1c(=N)c(C#N)cc2c(=O)n3ccccc3nc21 (stereo not drawn)	8	12	-1	11	-13	-7	2812
O=C(CSc1nnc(NC(=O)C2CC(=O)N(c3ccc(F)cc3)C2)s1)NC1CCCC1 (stereo not drawn)	6	-5	2	9	2.8	-15	5504
O=C(NCCc1ccccc1)C1CCCN1S(=O)(=O)c1ccccc1 (stereo not drawn)	-6	2	-1	-1	2.3	-31	4817
CC(C)C(=O)N1CCC(c2nc(-c3ccc(S(=O)(=O)N4CCCC4)cc3)no2)CC1	4	8	6	1	3.5	-23	6697
CCOc1ccc(C(C)=O)cc1COc1ccc(-n2cnnn2)cc1	·	·	6	·	-1.7	-14	4257
O=C(O)CCC(=O)N1CCc2cc(S(=O)(=O)NCc3cccs3)ccc21	10	3	6	4	4.5	-16	11317
COC(=O)c1ccc(COC(=O)CNS(=O)(=O)c2ccc(C)cc2)cc1	7	9	10	8	5.6	1	4797
COc1ccccc1N1CCN(C(c2cccs2)C(C)NC(=O)c2cccs2)CC1 (stereo not drawn)	-2	4	7	6	1.0	-1	11206
O=C(CSc1ccc(Br)cc1)NCC(c1cccs1)N1CCOCC1 (stereo not drawn)	-3	9	9	3	10	-19	5497
N#CC(=NNc1ccc(F)cc1)C(=O)C1CC1	·	-5	5	-5	18	·	·
COc1ccc2[nH]cc(CCNS(=O)(=O)Cc3ccccc3)c2c1	2	-3	0	4	-0.5	-21	3562
COc1cccc(C(=O)Nc2nc3ccc(S(C)(=O)=O)cc3s2)c1	4	4	2	2	5.5	-29	3554
COc1ccc(CCNC(=O)c2oc3ccc(OC)cc3c2C)cc1	8	6	9	10	-2.1	-16	4414
CCN1CCN(Cc2c(O)ccc3c2O/C(=C\C=C\c2ccccc2OC)C3=O)CC1	13	9	-2	10	3.7	5	2880
O=C(COC(=O)c1c(F)cccc1Cl)NC1CCCC1	8	15	4	-1	5.4	-25	4500
COc1ccc(N(CC(=O)NCc2cccs2)S(=O)(=O)c2c(C)nn(C)c2C)cc1	0	0	0	3	2.5	-22	5356
COCCN1CCN(c2cc(-c3ccccc3)nc3cc(-c4cccc(F)c4)nn23)CC1	-4	·	3	·	-6.1	-4	3588
Cc1ccccc1NC(=O)c1ccc(C)c(S(=O)(=O)N2CCN(C)CC2)c1	4	-23	3	0	0.0	-13	4290
C#C[C@@]1(O)CCC2C3CCC4=CC(=NOCC(=O)NC(C(=O)O)C(C)O)CC[C@]4(C)C3CC[C@@]21C (stereo partly drawn)	·	-1	7	-5	-1.7	·	·
CCCC(=O)NC(=S)Nc1c(C)cc(Br)cc1C	-6	·	-5	·	-3.5	-50	4142
C/C(=N/NC(=O)c1cccc(N2CCCC2=O)c1)c1ccncc1	-9	·	·	·	·	-48	4878
CC(=O)Nc1cccc(NC(=O)CSc2nnc(Cc3cccn3C)n2-c2ccc(F)cc2)c1	3	4	0	7	3.1	-2	21922*
CC1(C)C(C=C(Cl)Cl)C1C(=O)N1CCN(Cc2ccccc2)CC1 (stereo not drawn)	4	3	6	8	2.6	-3	3414
CC(C)C(=O)Nc1c(C(=O)c2ccc(F)cc2)oc2ccccc12	8	10	-13	5	-3.8	-12	4049
CC(=O)Nc1ccc(C(=O)CSc2nnnn2C2CCCC2)cc1	-8	18	6	8	1.8	-2	3204
O=C(NC1CCN(C(=O)Nc2ccc(F)cc2)CC1)c1cccc(F)c1	-1	13	1	-4	-0.4	-8	5986
O=C(O)[C@H](Cc1ccccc1)NC(=O)N1CCN(c2ccccc2)CC1	0	3	8	3	0.7	-5	4279
